Compound activity as filed in PubChem BioAssay.
BJeLR viability = BJeLR cell viability loss; inhibition, % (concentration not given with the values); 0.17% of 300,000 active; BJeLR (HRASV12) viability, CellTiter-Glo ATP luminescence, 48 h; reference of the scale not given here;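 active means replicate mean above 50%; inconclusive means above 50% but judged a plate artefact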;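 further: 50 nL library stock added to about 25 µL; numbers are from one replicate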
Mtb hypoxia inh = reduces hypoxia-regulated biosensor signal in M. tuberculosis; AID 1159583; M. tuberculosis hypoxia-regulated fluorescent reporter, fluorescence; fluorescence inhibition, % (no concentration beside the values); 0.1% of 300,000 active;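 active means 35 to 45% if threefold the growth effect, above 45% if 1.5-fold the growth effect; inactive means the rest, general growth blockers included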;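 further: wells of about 50 µL received 100 nL stock; 0% = vehicle wells and 100% = reference inhibitor wells; whole bacteria with a GFP reporter of the hypoxia response; strong numbers were not always called active; many hits fall short of the cut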
PrP 5UTR inh = inhibition of PrP 5' UTR reporter expression; 0.35% of 340,000 active; inhibition, % (test concentration not listed); cell-based PrP 5' UTR mRNA reporter, plate reader; AID 488862;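 active means every replicate at 50% or more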;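 further: 0 = median of the neutral control wells; tested in H4 reporter cells; numbers are from one replicate; inactives centre near -14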
Bead autofluor = counter-screen for toxin protease inhibitors: compound fluorescence. AID 624483. compound autofluorescence counterscreen, microsphere flow cytometry; active compounds read high. 3.1% of 360,000 active. fluorescence intensity (test concentration not listed);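 active means at least 3 SD above the mean of all compounds, about 16000 in these data; inconclusive means too few beads counted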;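 further: 100 nL of 1 mM stock went into each well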
RN4220 kill = kills Staphylococcus aureus RN4220; S. aureus RN4220 growth, OD600, 16 h; inhibition, % (concentration not given with the values); 0.33% of 330,000 active; AID 1259311;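 active means z-score of -3 or lower and OD600 up to 0.18 on both plates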;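 further: plate controls were untreated cells for no effect and reference antibiotic for full effect; stock transfer was 100 nL into about 80 µL; one replicate is shown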
Sa ugtP lethal = growth inhibition of S. aureus ugtP deletion strain; S. aureus RN4220 ugtP deletion, OD600 growth, 16 h; some inactives read as strong as hits; growth inhibition, % (concentration not given with the values); 0.54% of 330,000 active;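 active means z-score under -3 and OD600 up to 0.15 on both plates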;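 further: plate controls were untreated wells for no effect and antibiotic for full effect; wells of about 80 µL received 100 nL stock; the first replicate is given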
Mtb hypoxia inh growth = second read-out of Mtb hypoxia inh, no call of its own (marks repeat the call); growth inhibition, %; measured here: M. tuberculosis growth (absorbance);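 0% = vehicle and 100% = reference antibiotic; read after six days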
The depositor's hits bear a star; u = inconclusive; x = no result given; & = joins results of further samples. Compounds as they come; about 4% have a hit in one of these screens.

SMILES	BJeLR viability	Mtb hypoxia inh	Mtb hypoxia inh growth	PrP 5UTR inh	Bead autofluor	RN4220 kill	Sa ugtP lethal
NC(=O)C1(Nc2ccccc2)CCCC1	x	-5	-1	2	3744	1.7	1
Cc1ccc(SCC(=O)O/N=C(\N)c2ccc([N+](=O)[O-])cc2)cc1	-18	-1	10	-39	22162*	8.5	4
COC(=O)CNC(c1ccccc1)c1cc(Br)ccc1NC(=O)CCN1CCOCC1 (stereo unspecified)	4	-1	-3	-12	2504	-3.7	-2
CC(=O)Nc1ccc2c(c1)OCCO2	-2	x	x	-5	2584	1.3	6
COc1cccc(NC(=S)N/N=C2\CC(C)(C)Oc3ccc(O)cc32)c1	10	x	x	-12	2391	x	x
CC(C)(C)c1[nH]nc2c1C(c1ccsc1)C(C#N)=C(N)O2 (stereo unspecified)	7	4	12	-8	2451	3.8	-8
COc1ccc(NC(=O)c2sc3nc(C)cc(C)c3c2N)cc1	-1	-13	2	-59	3047	5.8	7
COc1cccc(C(=O)NNC(=O)C(=O)Nc2ccc(C)cc2)c1	-5	x	x	-13	5758	x	x
COc1cc2[nH]c(C(=O)N3CCN(c4ccc(F)cc4)CC3)cc2c(OC)c1OC	-19	2	-3	6	4097	3.4	10
CSc1ccc(S(=O)(=O)N2CCC(C(=O)NCCc3ccccc3)CC2)cc1	-2	-4	1	-7	4033	3.5	5
O=C(CCSc1nnc2ccccn12)Nc1ccc2c(c1)OCO2	-4	4	-2	-25	4234	2.6	3
Nc1ncnc2c1CCC2	7	1	2	-19	2952	22	15
CCOc1ccccc1CN1CCN(Cc2nc3c(s2)CCCC3)CC1CCO (stereo unspecified)	-7	11	5	-21	2301	1.3	-3
Cc1cc(C)n(C(=O)/C(C#N)=N\Nc2ccccc2[N+](=O)[O-])n1	1	x	x	-5	4519	x	x
O=C(O)c1ccc2c(c1)C1C=CCC1C(c1ccncc1)N2 (stereo unspecified)	10	-4	2	-10	4580	1.2	5
Cc1cc(C(=O)OCC(=O)Nc2ncc(C(F)(F)F)cc2Cl)c(C)o1	-3	x	x	-12	2476	-7.0	-24
COc1ccc(S(=O)(=O)Nc2cccc3c2OC(CN(C)Cc2ccncc2)C(C)CN(C(C)CO)C3=O)cc1 (stereo unspecified)	x	8	0	x	x	-2.7	-1
Cc1ccc2c(c1)N(C(=O)CCC(=O)NCCCN1CCC(Cc3ccccc3)CC1)CCO2	0	-1	11	-15	4424	11	-2
Cc1ccc(OC(=O)c2ccc(S(=O)(=O)N(C)C)cc2)c(-n2nc3ccccc3n2)c1	16	0	-4	x	10750	3.3	4
CCN(Cc1ccccc1)C(=O)CN1C(=O)NC(CC)(c2ccc(F)cc2)C1=O (stereo unspecified)	-6	5	-7	-12	3620	0.9	-1
CC1=C/C(=C\c2ccc(Br)o2)C(=O)O1	-4	1	5	-12	2028	2.1	1
COc1ccc(C(=O)OCC(=O)NCc2ccco2)cc1S(=O)(=O)N1CCN(c2cccc(Cl)c2)CC1	6	x	x	-10	4385	-3.8	-5
Cc1cccn2c(=O)c3cc(C#N)c(=O)n(-c4c(C)n(C)n(-c5ccccc5)c4=O)c3nc12	-3	1	0	-6	8824	2.5	9
CCN(Cc1nc(-c2ccc(OC)cc2)no1)C(=O)c1ccc2c(c1)OCO2	-4	4	3	-3	4176	3.0	12
CCOC(=O)C1CCN(C(=O)CS(=O)(=O)Cc2nc(-c3ccccc3Cl)oc2C)CC1	-6	4	3	-13	6791	10	10
O=C(CSc1nc2cc(S(=O)(=O)N3CCOCC3)ccc2o1)NC1CCCc2ccccc21 (stereo unspecified)	0	2	7	-10	3953	0.0	-1
COc1nc(-c2ccc(Cl)cc2)ccc1-c1noc(-c2cccs2)n1	-6	-1	1	-35	8921	6.5	-13
N=c1c2c(n(Cc3ccc(Cl)cc3Cl)c3c1CCC3)CCCC2	26	x	x	21	2666	-8.7	-19
O=C(CSc1nc2ccccc2n1Cc1ccccc1)N/N=C/c1ccco1	10	x	x	-7	8038	x	x
COc1ccc(CN(C(=O)c2cccs2)C(C(=O)NC2CCCCC2)c2ccc3ncccc3c2)cc1 (stereo unspecified)	12	-1	-1	-9	10731	2.9	22
COCCCNC(=S)NN=Cc1cccc(OC)c1O	x	15	10	x	x	5.6	14
CC(=O)N(C(C)=O)S(=O)(=O)c1ccc(N=NN2CCOCC2)cc1	24	5	2	-20	2488	6.4	-6
Cc1noc(C)c1COc1ccc(CC(=O)NCCc2ccccn2)cc1	-6	10	6	-16	3647	0.6	12
COc1ccc(/C=N/NC(=O)CSCC(=O)Nc2ccccc2)cc1	3	x	x	-25	3413	x	x
O=[N+]([O-])c1ccc(-c2ccccc2)c([As](=O)(O)O)c1	8	13	6	-26	3712	2.6	5
CC1CCC/C(=N\NC(=S)Nc2ccccc2)C1 (stereo unspecified)	-3	x	x	-28	2137	x	x

Among those listed so far, two have an NH in an aromatic ring.
SMILES	BJeLR viability	Mtb hypoxia inh	Mtb hypoxia inh growth	PrP 5UTR inh	Bead autofluor	RN4220 kill	Sa ugtP lethal
CC(C)(C)c1[nH]nc2c1C(c1ccsc1)C(C#N)=C(N)O2 (stereo unspecified)	7	4	12	-8	2451	3.8	-8
COc1cc2[nH]c(C(=O)N3CCN(c4ccc(F)cc4)CC3)cc2c(OC)c1OC	-19	2	-3	6	4097	3.4	10

By substructure, those above containing a cyano group (three)
SMILES	BJeLR viability	Mtb hypoxia inh	Mtb hypoxia inh growth	PrP 5UTR inh	Bead autofluor	RN4220 kill	Sa ugtP lethal
CC(C)(C)c1[nH]nc2c1C(c1ccsc1)C(C#N)=C(N)O2 (stereo unspecified)	7	4	12	-8	2451	3.8	-8
Cc1cc(C)n(C(=O)/C(C#N)=N\Nc2ccccc2[N+](=O)[O-])n1	1	x	x	-5	4519	x	x
Cc1cccn2c(=O)c3cc(C#N)c(=O)n(-c4c(C)n(C)n(-c5ccccc5)c4=O)c3nc12	-3	1	0	-6	8824	2.5	9

Next section:
SMILES	BJeLR viability	Mtb hypoxia inh	Mtb hypoxia inh growth	PrP 5UTR inh	Bead autofluor	RN4220 kill	Sa ugtP lethal
CCS(=O)(=O)c1ccc(-c2cccc(NC(=O)COc3ccccc3)c2)nn1	-5	-12	-1	3	5843	1.9	-2
COc1cccc(C2CC(c3ccc(NS(C)(=O)=O)cc3)=NN2C(=O)c2ccccc2)c1OC (stereo unspecified)	-9	-1	2	-25	3111	2.0	-18
CCN(C(=O)CN1CCCCC1)C1(C)C(=O)c2ccccc2C1=O	-1	9	2	-12	2454	2.0	2
COc1ccc(NS(=O)(=O)c2cc(NC(=O)c3cccnc3Cl)ccc2N2CCCC2)cc1	8	0	-3	x	4525	3.6	11
O=C(NC1CC1)C1=CC(C2CCCCC2)CC(OCc2ccc(CO)cc2)O1 (stereo unspecified)	x	20&20	13&8	x	x	6.8&4.4	2&-3
COc1ccc(S(=O)(=O)N(C)CC(=O)NCCc2ccccc2)cc1OC	1	2	-5	-17	3947	1.2	4
CCC1CC2(C)NC(=O)c3c(sc4c3CC(C)(C)OC4)N2C1=O (stereo unspecified)	0	x	x	-4	4603	x	x
CCOC(=O)c1ccc(Cl)c(NC(=O)c2ccc(-c3ccccc3)cc2)c1	5	-2	-5	-55	7234	-2.1	2
COc1ccc(-c2c(C#N)sc(C(N)=O)c2-c2ccc(OC)cc2)cc1	15	-3	-1	-11	5929	-2.6	14
COc1ccc(CN2C(=O)c3cccnc3C2Nc2cc(Cl)c(OC)cc2OC)cc1 (stereo unspecified)	5	-8	2	-11	11267	-1.6	0
COC(=O)Cc1ccc(NC(=S)N2CCCC(C)C2)cc1 (stereo unspecified)	0	-12	8	-5	1995	4.2	4
CCC(C)(C)NC(=O)c1ccc2c(c1)N(CC(=O)N1CCCC1)C(=O)C(C)(C)O2	0	1	4	-24	3769	1.2	2
COc1cccc(-c2csc3ncnc(Sc4nnnn4C)c23)c1	x	-3	-5	-5	3553	15	5
CC(C(=O)Nc1ccc2ccccc2c1)C1C[C@]1(C)C(NS(=O)(=O)c1ccc(-c2ccccc2)cc1)c1ccccc1 (stereo partly specified)	x	19	7	x	x	3.0	5
CC(=O)c1ccc(N2CCN(c3ccc(S(=O)(=O)NCCCN(C)C)cc3[N+](=O)[O-])CC2)cc1	11	-2	7	2	u	5.1	19
O=c1cc(-c2ccc(Cl)c(Cl)c2)[nH][nH]1	3	0	12	57*	2489	-22	-35
CC(C)CCNC(=O)C1CCC(CNc2c(N3CCC(C)CC3)c(=O)c2=O)CC1 (stereo unspecified)	1	-4	-5	-13	3470	2.8	14
Nc1ccc(/C=C/C(=O)c2cccs2)cc1	-2	2	-7	-94	6572	18	-6
CCN(Cc1ccccc1)c1ccc(N=Nc2nn(C)c(C)c2[N+](=O)[O-])cc1	-2	-3	-1	-36	2567	-3.2	2
CC1=C(C(=O)Nc2ccccn2)C(c2cccnc2)n2nnnc2N1 (stereo unspecified)	1	5	2	1	11224	3.9	8
CCN1C(=O)[C@H]2[C@@H](c3ccc(-c4ccccc4)cc3)N[C@@](C)(C(=O)OC)[C@H]2C1=O	4	x	x	-24	4026	x	x
COc1ccccc1[C@@H]1C(c2ccccc2)=NN(c2ccccc2)[C@H]1C(=O)N1CCOC1=O	x	2	13	-3	3667	-2.8	3
COc1cc2c3nc4n(c(=O)c3n(CC(=O)NCC3CCCO3)c2cc1OC)CCS4 (stereo unspecified)	9	16	4	-28	3974	2.9	13
Cc1ccc(-c2nnn(CC(=O)N(CC(=O)NC3CCCC3)c3cccc(F)c3)n2)o1	2	0	3	-6	6236	-2.2	-1
CC1(C)CC(=O)C2=C(C1)OC(N)=C(C#N)C2C1C=CCCC1 (stereo unspecified)	-7	x	x	-16	4443	4.3	7
Cc1ccc(S(=O)(=O)NCCCC(=O)N2CCC(C)CC2)cc1	20	13	1	-24	4065	6.2	9
CN(C)C(=O)C(=O)c1cccn1-c1cccc(Cl)c1C#N	2	17	17	-11	2009	3.9	5
O=C(NCc1ccco1)c1cccc2c1C(=O)N(C1CCCCC1)C2	-4	x	x	3	4435	4.5	5
Cn1ncc2c(NNC(=O)c3ccc(Cl)cc3Cl)ncnc21	-7	-10	-6	-22	2506	1.5	4
CCCN(CCC(=O)Nc1ccccc1F)CC1CC1	3	x	x	4	2827	5.8	9
Cc1cc(C)cc(OCCNC(=O)CCc2ccccc2)c1	-9	17	-5	-13	4088	4.5	15
CCCc1nnc(SCC(=O)N2CCCCC2C)n1CC (stereo unspecified)	-1	9	-1	-19	6590	0.7	1
CCN1CCCC1CN(Cc1cc2cc(C)cc(C)c2[nH]c1=O)C(=O)Nc1ccccc1OC (stereo unspecified)	5	-7	11	x	x	-9.9	-9
c1ccc(-c2ccccc2OCCN2CCCCC2)cc1	-12	-1	2	-20	2158	4.1	4
NNC(=O)c1ccc2c(c1)S(=O)(=O)NNC2=O	2	2	-4	-1	5261	1.6	10
COc1ccc(F)cc1C1=CC(=O)CC(c2ccc3c(c2)OCO3)C1 (stereo unspecified)	x	7	17	x	x	2.0	5
COc1ccc(C(=O)CNc2ccccc2Br)cc1	4	-8	-1	-47	4085	-1.3	7
Cc1cccc(OCC(=O)Nc2ccc3c(c2)nc2n3CCOC2)c1	1	3	-2	-17	5430	-5.1	-8
O=C(c1ccccc1)c1ccc2c(c1)OCCCO2	12	4	1	-110	x	3.3	0
CC(=O)c1cccc(Nc2c3c(nc4ccccc24)CCC3)c1	46	-7	8	38	4051	-0.8	-2
CC(=NNC(=O)c1nc2ccccn2c1C)c1cc2ccccc2o1	x	12	15	x	x	6.6	12
CC(C)C(NC(=O)c1ccccc1NC(=O)c1ccccc1)C(=O)NNC(=O)c1ccncc1 (stereo unspecified)	-3	3	-2	-10	7136	3.7	6
COc1cc(C(=O)NC(=S)Nc2csc(-c3ccc(F)cc3)n2)cc(OC)c1OC	-2	15	-13	-20	3071	-2.2	12
Cc1ccc(N2C(=O)C3C4C=CC(CC4)C3C2=O)cc1Br (stereo unspecified)	-10	9	-4	-9	4375	2.7	8
COc1ccc(-c2csc(NC(=O)c3ccc(S(=O)(=O)N4CCc5ccccc5C4)cc3)n2)cc1	24	3	-1	-3	2441	-2.3	4
CCCCn1c(N)nc2ccccc21	-4	1	2	-23	10385	3.8	6
O=S1(=O)CCOC[C@H](Cc2ccccc2)N1Cc1cccc(C(F)(F)F)c1	7	x	x	-6	4037	x	x
O=C(CCN1C(=O)/C(=C/c2ccccc2F)SC1=S)NCCc1ccc(O)cc1	13	8	2	-12	5568	22	2
